Compound activity: PubChem BioAssay, National Center for Advancing Translational Sciences (NCATS)
Rango release inh: prevents RanGTP from dissociating the Rango-importin beta complex | 340,000 compounds, 0.071% hits | Potency, µM (highest dose often 46.1 µM), for inactives: top-dose activity change, negative = inhibition | Biochemical FRET Rango-importin beta, RanGTP-induced dissociation | O95149+P62826; active means falling FRET ratio curve, often poorly fitted, with flat reads before Ran was added; inconclusive means other falling curves, or compound fluorescence or quenching; inactive means flat or rising ratio curve;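 further: potency means the concentration at half of the fitted maximal effect; % of control where 0% means no effect; nearly all actives have a fitted effect of over 45% in size; -100% = wells without RanGTP and RCC1; the record marks most hits as doubtful in a second field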
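Compounds sat 5 min at room temperature with 0.1 uM Rango biosensor plus 0.25 uM importin beta, then FRET pre-read. RanGTP-RCC1 (0.6 uM Ran, 2mM GTP, 0.2 uM RCC1) added for 45 min, and the CFP/YFP post-read measured blocked complex dissociation.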
miR-21 reporter: miR-21 reporter, rising signal | 340,000 tested, under 10 active | Potency, µM (top dose mostly 38.3 µM), without a hit: top-dose reporter change, positive = more light | AID 2288 | HeLa miR-21 FLuc reporter, luciferase, 48 h; active = well fitted rising curve with a large enough effect; inconclusive = small, poorly fitted or top-dose-only effect; inactive = no such curve, though single readings can be large or run the other way;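 further: % of control where 0% means no effect; miR-21 action dims this reporter so a rising signal means less miR-21 action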
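HeLa cells stably expressing CMV-driven firefly luciferase with a downstream miR-21 binding sequence, endogenously expressing miR-21, were treated with titrations (up to about 40uM final) for 48 hours at 37 degree Celsius. Luciferase luminescence was read after lysis.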
GLA inh pH 4.5: inhibitors of human alpha-galactosidase A at pH 4.5; AID 1467; P06280; 230,000 tested, under 10 active; purified enzyme, 4-MU-alpha-Gal fluorescence, pH 4.5; activity change, negative = inhibition, % at 105 µM; inconclusive = small, poorly fitted or top-dose-only inhibition, or a rising curve; inactive = flat fitted curve, though single readings scatter; no compound was filed as active;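 further: 0% = full activity with enzyme and -100% = basal without enzyme; dose as in the result columns while the protocol names 77 µM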
Rango complex inh: prevents formation of the Rango-importin beta complex. Rango CFP/YFP FRET sensor + importin beta, 45 min. Potency, µM (doses to about 92.2 µM), for inactives: top-dose inhibition of complex formation. 340,000 compounds, 0.031% hits. AID 540263; active = rising FRET ratio curve, often small or poorly fitted; inconclusive = mostly compound fluorescence or quenching in the first reads; inactive = flat curves in all reads;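 further: potency means the concentration at half of the fitted maximal effect; 0% = DMSO wells and 100% = buffer wells lacking importin beta; nearly all actives have a fitted effect of over 15% in size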
Target sequence (Q14974 whole entry, looked up): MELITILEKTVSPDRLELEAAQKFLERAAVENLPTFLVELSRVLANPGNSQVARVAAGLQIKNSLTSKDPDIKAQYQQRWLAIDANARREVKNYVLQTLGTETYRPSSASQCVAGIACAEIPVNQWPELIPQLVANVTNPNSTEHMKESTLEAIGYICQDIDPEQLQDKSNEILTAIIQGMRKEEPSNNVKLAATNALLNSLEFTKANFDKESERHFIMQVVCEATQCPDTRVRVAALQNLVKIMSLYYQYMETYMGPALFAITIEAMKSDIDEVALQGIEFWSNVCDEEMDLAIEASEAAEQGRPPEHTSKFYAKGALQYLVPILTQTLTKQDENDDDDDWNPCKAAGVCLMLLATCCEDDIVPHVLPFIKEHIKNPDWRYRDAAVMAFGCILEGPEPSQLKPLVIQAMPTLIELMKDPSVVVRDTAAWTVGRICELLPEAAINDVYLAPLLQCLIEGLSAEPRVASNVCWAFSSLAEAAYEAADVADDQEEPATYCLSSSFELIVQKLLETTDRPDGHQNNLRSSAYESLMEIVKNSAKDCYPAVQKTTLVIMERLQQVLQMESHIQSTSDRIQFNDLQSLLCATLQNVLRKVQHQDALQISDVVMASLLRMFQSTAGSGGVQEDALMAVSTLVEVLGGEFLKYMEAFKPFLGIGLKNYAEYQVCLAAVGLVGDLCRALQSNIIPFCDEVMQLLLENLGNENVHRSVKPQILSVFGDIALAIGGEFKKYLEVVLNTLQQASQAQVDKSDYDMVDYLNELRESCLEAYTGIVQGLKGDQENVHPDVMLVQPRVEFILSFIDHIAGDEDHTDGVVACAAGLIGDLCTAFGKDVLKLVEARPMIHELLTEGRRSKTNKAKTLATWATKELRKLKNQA
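Inhibition scored from the CFP 486 nm/YFP 530 nm FRET ratio 45 min after adding 0.125 microM importin beta to 50 nM Rango biosensor preincubated 5 min with compound (room temperature, PBS with DTT, Tween-20, BSA). No-importin wells as positive control.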
Active calls of the source: *; u = inconclusive; x = no result given; & = joins results of further samples. This is a subset (hit frequency here may not be typical).

#	Rango release inh	miR-21 reporter	GLA inh pH 4.5	Rango complex inh	Compound
1	-1%	3%	6	-1.1%	CCc1nnc(NC(=O)CSc2nc(SC)ns2)s1
2	15%	0%	-20	-3.3%	CC(=O)NCCc1c[nH]c2ccc(OCC(O)CNC(C)(C)C)cc12 (stereo not given)
3	-10%	-2%	x	0.6%	O=C(NNC(=O)c1ccc(S(=O)(=O)N2CCCCC2)cc1)c1ccc(F)cc1
4	-4%	x	x	-1.0%	COc1ccc(-c2csc(NCCn3c(C)nc4cc(C(F)(F)F)ccc43)n2)cc1
5	22%	x	x	-0.2%	Cc1ccccc1C(=O)N1CCC(C(=O)Nc2ccc(S(=O)(=O)N3C(C)CCCC3C)cc2)CC1 (stereo not given)
6	-29%	-73%	0	u	CS(=O)(=O)Nc1ccc(C2=NN(S(C)(=O)=O)C(c3ccc4c(c3)OCO4)C2)cc1 (stereo not given)
7	-1%	-11%	0	u	O=C1OC(/C=C/c2ccc(Cl)cc2Cl)=NC/1=C\c1cccs1
8	-9%	-6%	13	u	COc1ccc(NC(=O)c2oc3ccccc3c2NC(=O)c2ccco2)c(OC)c1
9	-6%	-5%	x	-4.8%	CC(C)CCNC(=O)CN(C(=O)CCC(=O)Nc1nccs1)C1CCCCC1
10	u	x	x	u	CCN(CC)C(=O)[C@H]1C[C@H](CC(=O)NCc2ccc(OC)c(OC)c2)C(=O)N2CCc3c([nH]c4cc(-c5ccco5)ccc34)[C@]12C
11	7%	-6%	1	-0.9%	O=C(Oc1cccnc1)c1ccc(Cl)c(Cl)c1
12	2%	x	x	0.3%	CC1CCCCN1S(=O)(=O)CCNC(=O)c1ccccc1 (stereo not given)
13	0%	-2%	3	5.1%	Cc1ccc(-c2csc(N)n2)s1
14	-2%	x	x	u	CCN(CC(=O)Nc1ccc(NC(C)=O)cc1)C(=O)CCCN1C(=O)c2ccccc2C1=O
15	0%	x	x	-0.3%	C(/C=C/c1ccccn1)=C\c1ccccc1
16	6%	0%	9	3.3%	O=C(COC(=O)c1cc(=O)c2ccccc2o1)NC1CCCCC1
17	-2%	13%	-13	2.7%	COc1ccc(N2CCN(C(=S)Nc3ccc(S(N)(=O)=O)cc3)CC2)cc1
18	-10%	-3%	1	5.2%	O=C(NNS(=O)(=O)c1ccc(F)cc1)c1cnn(-c2ccccc2)c1C(F)(F)F
19	-6%	-13%	-2	-1.6%	CC1=C(C(=O)OC(C)C)C(c2ccc(C)o2)NC(=O)N1 (stereo not given)
20	1%	30%	1	-3.5%	C#Cc1ccc([C@@H]2C=C(C(=O)N3CCN(Cc4ccccc4)CC3)O[C@H](OCC)[C@H]2CCCO)cc1
21	-1%	0%	x	0.3%	COc1ccccc1N1CCNC(C)C1=O (stereo not given)
22	0%	-3%	-23	-0.6%	Cc1ccc(NC(=O)C(C)c2cccc(C(=O)c3ccccc3)c2)cc1 (stereo not given)
23	0%	1%	-4	0.5%	COC(=O)c1cc(=O)nc2sc3cc(OC)ccc3n12
24	14%	x	x	-1.7%	CCCCNS(=O)(=O)CCNCCc1ccccc1
25	-16%	-23%	-8	u	CC1(C)CC(/C=C/c2ccccc2)=Nc2ccccc2N1
26	-15%	-1%	5	0.4%	Cc1c(NC(=S)NC(=O)c2ccc(Br)o2)c(=O)n(-c2ccccc2)n1C
27	x	-6%	4	x	COc1ccc(OC)c(C(=O)CSc2nnc(-c3ccc(OC)c(OC)c3)o2)c1
28	4%	0%	x	-1.2%	CC(C)C(NC(=O)c1ccccc1F)C(=O)NCc1ccc(F)cc1 (stereo not given)
29	6%	x	x	-0.6%	O=C(CCNC(=O)c1ccc(Br)cc1)NNC(=O)c1ccccc1
30	-2%	27%	x	u	O=C(c1ccc(N2CCN(C(=O)c3ccccc3)CC2)cc1)c1cccc(F)c1
31	0%	0%	3	-2.8%	COC(=O)C(CC(C)C)NC(=O)/C=C/c1ccccc1Cl (stereo not given)
32	-6%	0%	4	0.7%	CC(C)(C)C(=O)/C=C/Nc1ccccc1O
33	1%	4%	4	-0.1%	COCCCNC(=O)c1ccccc1C(F)(F)F
34	-8%	-25%	-3	1.7%	c1ccc(CCc2nn3c(Cc4ccccc4)nnc3s2)cc1
35	-7%	2%	x	-1.2%	CSCCC(NS(=O)(=O)c1ccccc1F)C(=O)N1CC=C(c2ccccc2)CC1 (stereo not given)
36	7%	3%	7	-3.2%	CCCOC(=O)CSc1nnc(-c2ccccc2Cl)o1
37	2%	x	x	u	CN(C)CCCN1c2ccc([N+](=O)[O-])cc2CCc2cc([N+](=O)[O-])ccc21
38	-4%	-2%	0	-1.7%	O=C(c1ccccc1C(F)(F)F)N1CCN(S(=O)(=O)c2ccccc2)CC1
39	9%	x	x	-2.3%	CN(c1ccccc1)S(=O)(=O)c1ccc(Cl)c(C(=O)NCC(c2ccco2)N2CCCC2)c1 (stereo not given)
40	-14%	-2%	-5	-3.7%	CN1/C(=C\C(=O)Nc2ccc(Br)cc2)C(C)(C)c2ccccc21
41	21%	-3%	-19	0.4%	Cc1ccccc1NC(=O)Cn1c([N+](=O)[O-])cnc1C
42	-5%	1%	3	0.5%	CCOc1[nH]n(-c2ccc(Cl)cc2)c(=O)c1C=NCC(=O)OC
43	3%	-2%	1	-3.1%	O=C(NCCc1c[nH]c2ccccc12)C(=O)NCC1CCCO1 (stereo not given)
44	8%	-73%	x	0.4%	Nc1c(-c2cccc(Cl)c2)cnc2c(-c3ccccc3)cnn12
45	-19%&3%	0%	u	2.0%&-0.7%	CC(C)c1ccc(OCC(O)CN2CCN(c3ccccc3)CC2)cc1 (stereo not given)
46	10%	14%	6	-0.1%	CC1(C)SC(=S)N(/N=C/c2ccccc2)C1N(O)C(=O)Nc1ccc([N+](=O)[O-])cc1 (stereo not given)
47	-9%	-35%	3	-0.6%	O=C(NC1CCCCCC1)c1cccc(COCC(F)(F)F)c1
48	10%	-8%	-3	5.0%	O=c1c2ccccc2nnn1CSc1nnc(C2COc3ccccc3O2)n1-c1ccccc1 (stereo not given)
49	5%	0%	x	1.0%	O=C(NCc1ccc(F)cc1)C(=O)NCC1OCCCN1S(=O)(=O)c1cccs1 (stereo not given)
50	-3%	x	x	-0.5%	Cc1ccc(NS(=O)(=O)c2cccc(C(=O)NNC(=O)c3ccco3)c2)c(C)c1
51	1%	-3%	5	-0.5%	CCOc1ccc(C2N(c3ccc(OC)cc3)C(=O)C3CCCN32)cc1OC (stereo not given)
52	-2%	x	x	-0.9%	CNC[C@H]1Oc2ccc(NC(=O)Cc3cn(C)c4ccccc34)cc2CC(=O)N([C@@H](C)CO)C[C@H]1C
53	14%	u	-17	-2.6%	Cc1onc(-c2c(F)cccc2Cl)c1C(=O)Nc1cccc(S(=O)(=O)NCc2ccco2)c1
54	19%	-3%	-5	-0.8%	COc1cc(Cl)c(C)cc1NC(=O)CSc1ccc(C)cc1
55	x	-1%	2	x	CCN(CC)S(=O)(=O)c1cccc(C(=O)N[C@@H](C)c2nc3ccccc3[nH]2)c1
56	2%	x	x	-2.1%	CC(NC(=O)COC(=O)c1cc(S(=O)(=O)N2CCOCC2)ccc1F)c1ccccc1 (stereo not given)
57	-4%	-31%	-4	1.8%	O=C(/C=C/c1ccccc1)c1ccc2c3c(cccc13)CC2
58	3%	x	x	1.3%	O=C(Nc1ccccc1N1CCOCC1)c1ccc(Cl)c(S(=O)(=O)N2CCCC2)c1
59	9%	-25%	6	-5.0%	CCOC(=O)c1cnc2c(-c3ccc(Cl)cc3)cnn2c1C
60	-8%	-9%	3	0.7%	COc1ccc(NC(=O)C2=C(C)C(=O)OC23CCC(C)CC3)c(OC)c1 (stereo not given)

(continued)
#	Rango release inh	miR-21 reporter	GLA inh pH 4.5	Rango complex inh	Compound
61	x	-8%	3	x	CNC(=O)c1cc2c(=O)n3cc(C)ccc3nc2n(Cc2ccco2)c1=N
62	0%	1%	x	-0.3%	CC(=O)N1N=C(c2ccc(Cl)cc2)CC1c1ccc([N+](=O)[O-])cc1 (stereo not given)
63	-6%	-4%	x	-2.8%	CCC(C)(C)NC(=O)CN(Cc1ccco1)C(=O)CCC(=O)Nc1nccs1
64	-6%	8%	x	-2.2%	C=CCN1C(=S)CC(c2ccccc2)=Nc2ccccc21
65	15%	-5%	0	2.5%	CN1CCN(C(=O)c2cc(Oc3c(F)c(F)c(F)c(F)c3F)cc(C(=O)N3CCN(C)CC3)c2)CC1
66	-7%	-2%	-4	6.9%	CCOc1ccccc1NC(=O)C(Sc1nnnn1C)c1ccccc1 (stereo not given)
67	-12%	-7%	3	3.6%	Cc1c(O)c2c(=O)n(-c3ccccc3)c(-c3ccccc3)cc2oc1=O
68	1%	0%	-6	0.0%	CC(NC(=O)C1c2ccccc2Oc2ccccc21)C1CCCO1 (stereo not given)
69	14%	-2%	x	18%	CCOC(=O)C1=C(COc2ccccc2)NC(=O)NC1c1cccc([N+](=O)[O-])c1 (stereo not given)
70	12%	-1%	-5	2.8%	O=C(CSc1ccccc1)Nc1cc(S(=O)(=O)N2CCOCC2)ccc1N1CCOCC1
71	-3%	-8%	3	-0.6%	Cc1c(Cl)cccc1NC(=S)N/N=C/c1ccccc1Cl
72	-3%	-36%	2	1.8%	CCOC(=O)Oc1ccc2oc(C)c(C(=O)OCCOC)c2c1
73	-10%	2%	-1	-1.6%	Cc1ccc(Nc2nc(-c3c(C)n(C)n(-c4ccccc4)c3=O)c(C)s2)cc1
74	1%	-1%	4	-1.0%	CCOC(=O)/C(C#N)=C1/CCCCCN1C
75	0%	x	x	3.2%	CN(CCOc1ccc(Cl)cc1)C(=O)c1ccccc1SCC(=O)N1CCCC1
76	19%	-7%	9	-1.4%	COc1ccc(NC(=O)Cn2c(CCC(=O)O)ccc2-c2ccc(C)cc2)cc1
77	16%	x	-7	-0.5%	COc1ccc(-c2coc3cc(OC4OC(CO)C(O)C(O)C4O)cc(O)c3c2=O)cc1 (stereo not given)
78	22%	-9%	x	-2.0%	O=C(Nc1ccccc1Cl)c1cccc(NC(=O)C2CCCC2)c1
79	0%	-4%	-1	-2.7%	Cc1ccc2[nH]cc(C(=O)CN3CCN(c4ccccn4)CC3)c2c1
80	6%	-3%	-4	3.7%	COc1ccc(C2C(C#N)=C(C)NC3=C2C(=O)c2ccccc23)cc1 (stereo not given)
81	11%	-10%	x	-3.6%	NC(=O)CSc1nc2ccccc2c(=O)n1CCc1ccccc1
82	-4%	20%	8	0.7%	COc1ccc2nc(Sc3c([N+](=O)[O-])nc(C)n3Cc3ccccc3)[nH]c2c1
83	-5%	5%	x	3.6%	CCOC(=O)C1CCCN(C2=C(NS(=O)(=O)c3ccc(Br)cc3)C(=O)c3ccccc3C2=O)C1 (stereo not given)
84	3%	-3%	-4	-4.7%	COc1ccc(Nc2nc(C)cc(C)c2C#N)cc1OC
